Lassa entry inh: blocks Lassa virus binding to or entry into cells | AID 540256 | Lassa virus pseudotype entry inhibition, cell reporter; control for the full effect not named in the record | 300,000 tested, 1.2% active | Potency, µM (titrated, usually from 37.9 µM), for inactives: top-dose activity change, negative = inhibition, most hits filed as inhibitors; active means well fitted inhibition curve with a large enough effect; inconclusive means small, poorly fitted or top-dose-only effect, or effect the other way; inactive means flat fitted curve, though single readings scatter; tested in HEK293 cells; further: on the % scale 0 is the no-effect control and ±100 the full control effect; nearly all actives have a fitted effect of over 50% in size; luciferase read-out
NS1 inh: inhibitors of influenza NS1 protein function. Potency, µM (top dose mostly 46.1 µM), for the others: at the top dose activity, positive = more growth. 270,000 tested, 0.4% active. S. cerevisiae slowed by influenza A NS1, growth recovery by OD600; further: actives are rising curves; nearly all actives have a fitted effect of over 50% in size
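Compounds were scored for reversing the slow growth caused by influenza A NS1 in S. cerevisiae, measured by optical density at 600 nm. Assay medium contained 2% galactose at pH 6.0; NS1-free yeast of the same strain were the positive control.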
Cruzain Triton: inhibitors of Trypanosoma cruzi cruzain with detergent; purified cruzain, Z-FR-AMC fluorescence, 0.01% Triton; Potency, µM, without a hit: max response, negative = inhibition, most hits filed as inhibitors; 200,000 tested, 0.43% active; AID 1478; active means well fitted curve in the direction sought with a large enough effect; inconclusive means small, poorly fitted or top-dose-only effect, or another doubt; inactive means no such curve, though single readings can be large; an effect the other way counts as inactive or inconclusive;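 further: plate controls were neutral wells for no effect and buffer without enzyme for full effect; nearly all actives have a fitted effect of over 40% in size; top concentration of the series not given in the record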
Target sequence (P25779 123-467 limits assumed): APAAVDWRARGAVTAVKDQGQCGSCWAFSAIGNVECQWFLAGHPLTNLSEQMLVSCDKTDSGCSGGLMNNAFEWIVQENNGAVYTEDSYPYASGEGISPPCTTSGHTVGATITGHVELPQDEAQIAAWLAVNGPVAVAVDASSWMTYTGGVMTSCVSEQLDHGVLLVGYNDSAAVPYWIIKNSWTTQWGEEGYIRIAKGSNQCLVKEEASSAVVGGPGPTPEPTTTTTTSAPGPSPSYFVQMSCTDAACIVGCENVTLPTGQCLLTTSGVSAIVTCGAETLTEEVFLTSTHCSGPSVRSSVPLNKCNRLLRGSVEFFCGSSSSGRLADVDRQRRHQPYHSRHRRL
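Detergent-containing run (0.01% Triton X-100) in acetate buffer pH 5.5 with 5 mM DTT: enzyme at 1.5 nM final, 15 min compound preincubation at room temperature, then 2 uM Z-FR-AMC substrate. Activity taken as 60 s fluorescence increase at 360/450 nm.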
SARS PLpro yeast: SARS-CoV PLP inhibition in yeast; S. cerevisiae expressing SARS-CoV PLpro, growth rescue; control for the full effect not named in the record; AID 485353; Potency, µM (doses to about 32.9 µM), inactives show at the highest dose activity, positive = growth rescue; 330,000 tested, 0.19% active; further: 0% is about no effect; nearly all actives have a fitted effect of over 55% in size; growth read by luminescence after 48 h
RE007 growth inh: less growth of the S. pombe RE007 Vpr strain | 360,000 tested, 0.21% active | AID 651644 | Potency, µM (highest dose often 92.2 µM), for the others: at the top dose activity change, negative = less growth | S. pombe RE007 Vpr strain, BacTiter-Glo ATP luminescence, 24 h; control for the full effect not named in the record; active = well fitted falling curve with a large enough effect; inconclusive = small, poorly fitted or top-dose-only effect; inactive = no such curve, though single readings can be large or run the other way;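 further: on the % scale 0 is the no-effect control and ±100 the full control effect; nearly all actives have a fitted effect of over 50% in size; the assay follows cell death caused by Vpr and the record does not say whether a fall means rescue or toxicity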
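Fission yeast RE007 carrying one integrated HIV-1 vpr copy, seeded at OD 0.01 in PMG+AL medium with 23 nL pinned compound. Grown 24 h at 30 degrees; viability read by BacTiter-Glo luminescence after 5 min.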
Marburg entry inh: blocks Marburg virus binding to or entry into cells | Marburg virus pseudotyped entry inhibition, cell reporter; control for the full effect not named in the record; about a third of the inactives were read at about 46 µM | Potency, µM (series often up to 37.8 µM), without a hit: top-dose activity change, negative = inhibition, hits mostly inhibitors | 300,000 tested, 1.8% active; active = well fitted inhibition curve with a large enough effect; inconclusive = small, poorly fitted or top-dose-only effect, or effect the other way; inactive = flat fitted curve, though single readings scatter; tested in HEK293 cells; about a fifth of its hits are not listed in these tables; further: on the % scale 0 is the no-effect control and ±100 the full control effect; luciferase read-out
Cruzain inh noDet: blocks cruzain activity in detergent-free assay | purified cruzain, Z-FR-AMC fluorescence, no detergent | 200,000 tested, 2.3% active | Potency, µM, for inactives: max response, negative = inhibition, hits mostly inhibitors | AID 1476 | P25779; active means well fitted curve in the direction sought with a large enough effect; inconclusive means small, poorly fitted or top-dose-only effect, or another doubt; inactive means no such curve, though single readings can be large; an effect the other way counts as inactive or inconclusive;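 further: plate controls were enzyme without inhibitor for no effect and buffer without enzyme for full effect; nearly all actives have a fitted effect of over 40% in size; top concentration of the series not given in the record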
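Purified cruzain at 1.5 nM, pre-incubated 15 min with compound at room temperature in 100 mM sodium acetate pH 5.5, 5 mM DTT, 0.00005% Triton X-100. Reaction started with 2 uM Z-FR-AMC; AMC fluorescence increase over 60 s gives rate.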
StopGo reporter: FMDV 2A StopGo reporter, luciferase signal; human cells with a luciferase reporter of 2A StopGo recoding; control for the full effect not named in the record; Potency, µM (highest dose often 57.9 µM), inactives show top-dose signal change, negative = less light; 410,000 tested, 1.2% active; active = well fitted falling curve with a large enough effect; inconclusive = small, poorly fitted or top-dose-only effect; inactive = no such curve, though single readings can be large or run the other way; tested in HEK293T cells; further: on the % scale 0 is the no-effect control and ±100 the full control effect; nearly all actives have a fitted effect of over 45% in size; luciferase light after 4 h
Active calls of the source: *; ? = inconclusive; · = not tested or not shown; & = joins results of further samples; [ ] = another dose, or the depositor's remark. Unless noted, the call rests on the fitted dose curve; in most records, active means well fitted rising curve with a large enough effect; inconclusive means small, poorly fitted or top-dose-only effect; inactive means no such curve, though single readings can be large or run the other way. Potency means the concentration at half of the fitted maximal effect.

no.	Structure	Lassa entry inh	NS1 inh	Cruzain Triton	SARS PLpro yeast
1	NS(=O)(=O)c1ccc(NC(=O)CSc2nnc(NC3CC3)s2)cc1	0%[46.1 µM]	·	·	-7%
2	CCOc1ccc(-c2nnc(N(CC)C(=O)C3CCC3)s2)cc1	?	-42%	-3.5%	-18%
3	Cc1noc(C)c1S(=O)(=O)N1CCC(C(=O)Nc2ccc(OC(F)(F)F)cc2)CC1	-27%	-5%	1.5%	3%
4	CC(=O)c1nnn(-c2nc(N3CCCC3)nc(N(c3ccccc3)c3ccccc3)n2)c1C	2%	5%	4.6%	2%
5	CC(=O)Nc1ccccc1-c1nn[nH]n1	2%	4%	-2.0%	-8%
6	NS(=O)(=O)c1ccc(NC(=O)COC(=O)c2ncc(Cl)c(Cl)c2Cl)cc1	-12%[46.1 µM]	·	·	-2%
7	CCOc1ccccc1C(=O)Nc1ccccc1C(N)=O	-1%	-61%	4.2%	-11%
8	O=C(OCc1cc(-c2ccccc2)no1)c1ccc2ccccc2n1	9%	-153%	-5.5%	-28%

no.	RE007 growth inh	Marburg entry inh	Cruzain inh noDet	StopGo reporter
1	1%	10%&10%	·	-1%
2	-3%	?	?	0%
3	1%	?	-8%	-23%
4	2%	11%&11%	-3%	-10%
5	-29%	4%[46.1 µM]	-8%	-1%
6	10%	0%[46.1 µM]	·	5%
7	-2%	-24%	2%	0%
8	17%	-30%	4%	-2%

(listing goes on)
no.	Structure	Lassa entry inh	NS1 inh	Cruzain Triton	SARS PLpro yeast
9	CCOc1ccccc1CNC(=O)c1ccc2nc(CCc3ccccc3)oc2c1	-7%[46.1 µM]	·	-3.2%	·
10	Cc1cc(NS(=O)(=O)c2ccc(NC(=O)c3ccc(Br)o3)cc2)nc(C)n1	-1%	·	·	-5%
11	Cc1cc(C(=O)NC2CCCc3c2cnn3-c2ccc(C)c(C)c2)n(C)n1 (stereo not given)	·	-21%	·	-5%
12	N#C/C(=C\c1cccnc1)C(=O)Nc1ccccc1	4%	12%	1.1%	-4%
13	CN1CCc2ccc(NC(=O)c3ccc(C(F)(F)F)cc3)cc2C1	·	-2%	·	3%
14	COC(=O)[C@@]1(Cc2ccc(F)cc2)[C@H]2c3cc(C(=O)N4CCCC4)n(CCc4c[nH]c5ccccc45)c3C[C@H]2CN1C(=O)c1ccccc1	·	·	-1.2%	·
15	CCSc1nn(CC(=O)Nc2cccc(CC)c2)c(N)c1S(=O)(=O)c1ccccc1	?	·	-6.4%	·
16	NS(=O)(=O)c1ccc(CNC(=O)Cc2c(F)cccc2Cl)cc1	-13%[46.1 µM]	7%	·	1%

no.	RE007 growth inh	Marburg entry inh	Cruzain inh noDet	StopGo reporter
9	·	·	13%	5%
10	5%	21%[46.1 µM]	·	73%[activator]
11	-1%	·	·	?
12	20%	-1%	-7%	-2%
13	44%	·	·	-27%
14	-1%	·	?	-13%
15	·	·	11%	?
16	1%	10%[46.1 µM]	·	26%

Other records follow:
no.	Structure	Lassa entry inh	NS1 inh	Cruzain Triton	SARS PLpro yeast
17	COc1ccccc1OCC(=O)N(Cc1nnc(-c2ccccc2Cl)o1)C1CC1	-10%	·	·	·
18	CCOC(=O)c1c(C)[nH]c(C)c1C(=O)COC(=O)CNC(=O)c1ccc(OCC)cc1	4%	-13%	?	1%
19	CN(C)c1cccc(C(=O)OCC(=O)NC(=O)NCc2ccccc2)c1	-15%[46.1 µM]	·	·	-4%
20	N#Cc1c(N)sc2c1CCN(C(=O)OCc1ccccc1)C2	21%	?	-12%	-4%
21	CC1(C)Oc2ccc(C(=O)NC3CCCCC3)cc2N(CC#N)C1=O	?	-3%	·	0%
22	CN(C(=O)COc1ccccc1)C1CCS(=O)(=O)C1 (stereo not given)	0%	0%	·	0%
23	Cc1cccc(NC(=O)CSCC(=O)Nc2cc(S(=O)(=O)N3CCOCC3)ccc2N2CCCC2)c1	-13%	-5%	·	1%
24	O=C(NNC(=O)c1ccccc1-c1ccccc1C(=O)O)c1ccccc1	-1%[46.1 µM]	1%	·	0%

no.	RE007 growth inh	Marburg entry inh	Cruzain inh noDet	StopGo reporter
17	10%	-13%[46.1 µM]	·	13%
18	9%	-2%&27%	-25%	1%
19	5%	-1%[46.1 µM]	·	-11%
20	-2%	7%	-22%	·
21	3%	7%[46.1 µM]	·	-5%
22	10%	11%	·	-21%
23	1%	-26%	·	-1%
24	9%	13%[46.1 µM]	·	-4%

The list continues:
no.	Structure	Lassa entry inh	NS1 inh	Cruzain Triton	SARS PLpro yeast
25	Cc1nn2c(=O)cc(COC(=O)Cc3ccccc3)nc2s1	-2%[46.1 µM]	·	-2.0%	·
26	CCOC(=O)c1cc(C)n(CC2CCC(C(=O)Nc3ccc(OCC)cc3)CC2)c1C (stereo not given)	8%[46.1 µM]	·	-2.6%	·
27	Cc1cccc(N2C(=S)NC3c4ccccc4OC2(C)C3C(=O)N(C)C)c1 (stereo not given)	?	·	·	4%
28	Nc1nc2n(n1)C(c1c(F)cccc1Cl)CC(c1ccc(F)cc1)N2 (stereo not given)	·	8%	-3.4%	0%
29	CCCCNC(=O)c1cnc2sc(N3CCCCCC3)nn2c1=O	1%[46.1 µM]	·	-8.9%	·
30	COc1cc2c(cc1OC)CN(C(=O)CN1CCN(S(=O)(=O)c3ccc(C)c(C)c3)CC1)CC2	·	-9%	·	-3%
31	COc1cccc(CNC(=O)CN2C(=O)CSc3c2c(C)nn3-c2ccccc2)c1	-20%[46.1 µM]	·	-3.5%	·
32	Cc1nn(C)cc1CN(C)C(=O)c1sc2cccc(Cl)c2c1Cl	13%	-98%	-1.6%	0%

no.	RE007 growth inh	Marburg entry inh	Cruzain inh noDet	StopGo reporter
25	·	·	-4%	-7%
26	·	·	14%	-28%
27	11%	15%[46.1 µM]	·	5%
28	4%	·	6%	-16%
29	·	·	0%	-12%
30	3%	·	·	-27%
31	·	·	-7%	48%[activator]
32	4%	0%	?	-17%

The results go on.
no.	Structure	Lassa entry inh	NS1 inh	Cruzain Triton	SARS PLpro yeast
33	CCCCNc1nc2c(c(=O)[nH]c(=O)n2C)n1CCOc1ccccc1	-7%	8%	4.2%	-8%
34	CN(C)c1ccc(/C=C(\C#N)C(=O)NCc2ccco2)cc1	8%	0%	3.3%	3%
35	CCOC(=O)C1=C(C)NC(=O)NC1c1c(C)nn(-c2ccccc2)c1Cl (stereo not given)	1%	-5%	2.6%	1%
36	COc1ccc(-c2cc(C(F)(F)F)n3nc(C)cc3n2)cc1	·	5%	-6.1%	3%
37	CCOC(=O)C1=C(NC(=O)c2ccc(Br)o2)Nc2ccccc2N=C1	0%	-36%	-1.0%	5%
38	COC(=O)c1ccc(COC(=O)C2CCN(S(=O)(=O)c3c(Cl)cccc3Cl)CC2)o1	-5%	·	·	4%
39	CC1=CCC2(CO)COC(c3ccccc3O)C1C2 (stereo not given)	?	-4%	3.8%	-3%
40	Cc1ccc2c(=O)c(C(=O)c3cccc(Cl)c3)cn(CC(=O)Nc3ccc4c(c3)OCCO4)c2n1	?	·	-4.4%	·

no.	RE007 growth inh	Marburg entry inh	Cruzain inh noDet	StopGo reporter
33	20%	-4%	1%	-5%
34	·	27%	-1%	·
35	8%	-13%	-7%	?
36	-1%	2%	15%	-20%
37	-10%	4%	-1%	-12%
38	-2%	?	·	-11%
39	-19%	23%	-3%	29%
40	·	·	5%	0%

New compounds follow:
no.	Structure	Lassa entry inh	NS1 inh	Cruzain Triton	SARS PLpro yeast
41	COc1ccc(/C=c2\s/c(=C(/C#N)C(=O)NCc3ccco3)n(-c3ccccc3)c2=O)cc1	5%	18%	-2.3%	-14%
42	CC(=O)c1ccc(NC(=O)Cc2ccsc2)cc1	0%[46.1 µM]	-17%	·	0%
43	COc1ccc(C(=O)NC2CC2)cc1OC1CCN(Cc2ccc(F)cc2)CC1	10%	5%	·	-5%
44	COc1cc(NC(=O)C2CCCN(S(=O)(=O)c3ccc4c(c3)CCCN4C(C)=O)C2)cc(OC)c1 (stereo not given)	·	-8%	·	7%
45	CCCC(c1nnnn1CC1CCCO1)N1CCN(c2cc(Cl)ccc2C)CC1 (stereo not given)	?	-57%	-7.3%	-12%
46	COc1cc(C(=O)NNC(=O)c2ccccc2Br)ccc1OCC(=O)N1CCOCC1	10%	·	·	0%
47	Cc1cc(C)cc(OCC(=O)Nc2cccc(-c3nnc(-c4ccco4)o3)c2)c1	50%[14.3 µM]	-77%	0.3%	-11%
48	CCN(CC)S(=O)(=O)c1cccc(C(=O)OCC(=O)C23CC4CC(CC(C4)C2)C3)c1	?	5%	2.5%	-1%
49	COc1ccc(C(=O)N2CCC(n3c(C)nc4cc(F)ccc43)CC2)cc1	3%[46.1 µM]	·	·	0%

no.	RE007 growth inh	Marburg entry inh	Cruzain inh noDet	StopGo reporter
41	4%	-3%	?	-7%
42	-14%	-3%[46.1 µM]	·	28%
43	4%	-1%	·	-14%
44	1%	·	·	-2%
45	22%	?	?	?
46	0%	8%	·	-11%
47	12%	-13%	5%	20µM*
48	3%	7%	-1%	9%
49	6%	?	·	?

Laid out differently: 3 of the compounds above.
43: COc1ccc(C(=O)NC2CC2)cc1OC1CCN(Cc2ccc(F)cc2)CC1
  Lassa entry inh: 10%	NS1 inh: 5%	Cruzain Triton: ·	SARS PLpro yeast: -5%	RE007 growth inh: 4%	Marburg entry inh: -1%	Cruzain inh noDet: ·	StopGo reporter: -14%
44: COc1cc(NC(=O)C2CCCN(S(=O)(=O)c3ccc4c(c3)CCCN4C(C)=O)C2)cc(OC)c1 (stereo not given)
  Lassa entry inh: ·	NS1 inh: -8%	Cruzain Triton: ·	SARS PLpro yeast: 7%	RE007 growth inh: 1%	Marburg entry inh: ·	Cruzain inh noDet: ·	StopGo reporter: -2%
45: CCCC(c1nnnn1CC1CCCO1)N1CCN(c2cc(Cl)ccc2C)CC1 (stereo not given)
  Lassa entry inh: ?	NS1 inh: -57%	Cruzain Triton: -7.3%	SARS PLpro yeast: -12%	RE007 growth inh: 22%	Marburg entry inh: ?	Cruzain inh noDet: ?	StopGo reporter: ?

Bioassay records from PubChem.
